H5N1 antiviral – MDCK cell protection from H5N1 avian flu; cytopathic effect, luminescence, 72 h; active compounds read high; no value below 0 was filed and about half of the inactive calls have no number; reference of the scale not given here; inhibition, % at 50 µM; AID 740, 2007; hit rate 0.07% among 96,000; in the data active = inhibition above about 25%
Active calls of the source: *; i = inactive. The list is partial (hit frequency here may not be typical).

SMILES	H5N1 antiviral
Cc1c(C(=O)NCc2ccco2)sc2nc(-c3ccccc3)cn12	0.5
COc1ccc(NS(=O)(=O)c2ccc3c(c2)oc(=O)n3C)c(OC)c1	1.8
COC(=O)C1=C(C)NC2=C(C(=O)CCC2)C1c1coc2ccccc2c1=O (configuration not stated)	0.1
Cc1cc(C)nc(SC2=CS(=O)(=O)c3ccccc32)n1	9.8
Cc1ccc(-c2cc(C(=O)NCC3CCCO3)no2)cc1 (configuration not stated)	i
CCN(CC)C(=O)CN(C#N)c1nc(OC)nc(N(C)C)n1	0.4
O=C(CNC1CCCCC1)N1CCc2ccccc2C1	0.2
CCOc1cc(C(=S)N2CCOCC2)ccc1OS(=O)(=O)c1ccc(NC(C)=O)cc1	0.7
Cc1cc(C(=O)O)c(C)n1-c1ccccc1	0.1
CCCOc1ccc(N2CC(C(=O)Nc3ccccc3C(=O)NCc3ccco3)CC2=O)cc1 (configuration not stated)	0.5
Nc1cc(C(=O)OCC(=O)NCc2ccco2)ccc1Cl	i
COCc1cc(Sc2ccc(Br)cc2)nc(-c2ccccc2)n1	i
COc1ccc(CCN2C(=O)C3C4CC(C5C(C(N)=O)=NOC45)C3C2=O)cc1OC (configuration not stated)	i
C[n+]1ccc(-c2ccncc2)cc1	0.1
O=C1CSC2N1CCNC21CCCCC1 (configuration not stated)	0.2

In a second layout: 4 of the compounds above
structure | H5N1 antiviral
CCCOc1ccc(N2CC(C(=O)Nc3ccccc3C(=O)NCc3ccco3)CC2=O)cc1 (configuration not stated) | 0.5
Nc1cc(C(=O)OCC(=O)NCc2ccco2)ccc1Cl | i
COCc1cc(Sc2ccc(Br)cc2)nc(-c2ccccc2)n1 | i
COc1ccc(CCN2C(=O)C3C4CC(C5C(C(N)=O)=NOC45)C3C2=O)cc1OC (configuration not stated) | i

(cont.)
SMILES	H5N1 antiviral
COc1ccc(Cn2nnnc2C(c2ccccc2Cl)N2CCN(C)CC2)cc1 (configuration not stated)	1.3
COc1ccc(Cl)cc1S(=O)(=O)N1CCN(C(=O)c2ccco2)CC1	1.2
Cc1ccc(OCC(=O)NNC(=O)CCC(=O)NCc2ccccc2)cc1	i
Cc1cccc2cc(COC(=O)c3ccco3)c(=O)[nH]c12	1.0
CS(=O)(=O)NCCCc1ccccc1	i
Cc1ccc(S(=O)(=O)NC(CN2CCOCC2)=NCCNS(=O)(=O)c2ccccc2)cc1	i
O=C(COc1ccc2ccccc2c1)N1CCN(CC2CC3C=CC2C3)CC1 (configuration not stated)	0.2
CCN(Cc1cc2ccc(C)cc2[nH]c1=O)C(=O)c1ccncc1	0.6
CCOC(=O)C1CCCN(S(=O)(=O)c2ccc(Br)c(OC)c2)C1 (configuration not stated)	1.0
O=C(NCc1ccc2c(c1)OCO2)c1ccc2c(=O)n(C3CCCC3)c(=O)[nH]c2c1	0.4
N/C(=N\OC(=O)c1ccccc1Cl)c1ccccc1	i
COc1ccccc1-n1c(O)c(C=NCCCn2ccnc2)c(=O)[nH]c1=O	1.0
CCCc1cn(S(=O)(=O)c2ccc(OC)cc2OC)nc1N	i
COc1cccc(C2=CC(c3ccc(C)cc3)n3ncnc3N2)c1 (configuration not stated)	1.8
COc1ccc(CNC(=O)CN(Cc2ccccc2)C(=O)c2csnn2)cc1	i
COCCNC(=O)CN1CCN(C(c2ccccc2)c2ccccc2)CC1	0.3
CN(C(=S)NC(=O)c1ccccc1Br)C1CCCCC1	1.4
Cc1ccc(S(=O)(=O)Nc2cc(C)c(O)c(S(=O)(=O)c3ccc(C)cc3)c2)cc1	i
COc1cccc(N2C(=O)CC(=O)NC2=O)c1	0.5
COc1cccc(-n2c(O)c(C=NCCN3CCOCC3)c(=O)[nH]c2=O)c1	i
Cc1ccc(CNc2nc3c([nH]2)c(=O)n(C)c(=O)n3C)cc1	0.1
COc1ccccc1N(CN1CCCC1=O)C(=O)COc1ccccc1	i
O=C(CSc1nc(-c2ccccc2)nc2c1CCCC2)N1CCOCC1	0.9
O=C(Nc1ccc2nc3n(c(=O)c2c1)CCCCC3)c1ccccc1Cl	1.7
COc1ccc(C(C)=O)cc1COC(=O)c1cc(C)oc1C	i
COc1ccc(C)cc1-n1nnnc1SCC(=O)NC(=O)NCc1ccco1	0.3
COc1ccc(OCCNC(=O)C(c2ccccc2)c2ccccc2)cc1	i
Cc1ccc(Cc2cnc(NC(=O)/C(C#N)=C/c3ccc(-c4ccccc4[N+](=O)[O-])o3)s2)cc1	i
Cc1ccc(C)c(NC(=O)C2CC(O)CN2C(=O)OCc2ccccc2)c1 (configuration not stated)	1.2
COc1cccc(OC)c1OCCNCCO	0.9

Sorted by molar mass (lowest first): part of the list above.
SMILES	H5N1 antiviral
Cc1ccc(CNc2nc3c([nH]2)c(=O)n(C)c(=O)n3C)cc1	0.1
COc1ccccc1N(CN1CCCC1=O)C(=O)COc1ccccc1	i
COc1cccc(-n2c(O)c(C=NCCN3CCOCC3)c(=O)[nH]c2=O)c1	i

A different layout for 3 compounds above.
| structure | H5N1 antiviral |
| --- | --- |
| COc1cccc(N2C(=O)CC(=O)NC2=O)c1 | 0.5 |
| CN(C(=S)NC(=O)c1ccccc1Br)C1CCCCC1 | 1.4 |
| O=C(CSc1nc(-c2ccccc2)nc2c1CCCC2)N1CCOCC1 | 0.9 |

(cont.)
SMILES	H5N1 antiviral
CCOC(=O)N1CCN(c2c(NCCCOC(C)C)c(=O)c2=O)CC1	i
O=C(CCCCCNc1nc(=S)[nH]c2ccccc12)N1CCN(c2ccccn2)CC1	0.0
COc1cc(OC)nc(Oc2ccccc2C(=O)Oc2cccc(C)c2)n1	0.8
O=C1c2ccsc2SCCN1Cc1c(Cl)cccc1Cl	i
CCOC(=O)N1CCN(C(=O)CN(c2cccc(C)c2)S(=O)(=O)c2ccccc2)CC1	i
Cc1cccc(-c2nnc(SCc3ccccc3)o2)c1	0.5
O=C(CSc1nnc(-c2cccnc2)n1-c1ccccc1)N1CCN(c2ccc(F)cc2)CC1	i
Cc1ccc(NC(=O)CCC(=O)OC(C(=O)c2ccc(C)c(C)c2)c2ccccc2)c(C)c1 (configuration not stated)	0.4
Cc1ccc(S(=O)(=O)N2CCCCC2C(=O)NCc2ccco2)cc1 (configuration not stated)	i
COc1cccc(-n2nnc3c(=O)n(CC(=O)N4CCC(Cc5ccccc5)CC4)cnc32)c1	0.3
O=C(N/N=C/c1ccc(F)cc1)c1cc(-c2ccco2)nc2ccccc12	0.5
CN(C)c1cccc2c(S(=O)(=O)Nc3ccccn3)cccc12	3.1
O=C(O)C1Cc2c([nH]c3ccccc23)C(c2ccc3c(c2)OCO3)N1 (configuration not stated)	0.3
CCOC(=O)CN1C(=O)C(Sc2n[nH]c(-c3ccc(O)cc3)n2)CCc2ccccc21 (configuration not stated)	1.5
CCOC(=O)c1[nH]c(C)c(C(=O)OCC(=O)N(CC)C2CCS(=O)(=O)C2)c1C (configuration not stated)	0.2
COc1ccccc1-c1nnc(SCC(=O)OC(C)C)o1	0.6
CC(=O)CC1OC(=O)C(Br)=C1NCc1ccccc1 (configuration not stated)	0.2
CCN(CCCNC(=O)C1CCCN(S(=O)(=O)CC)C1)c1cccc(C)c1 (configuration not stated)	0.2
Cc1cccc(C)c1N(CC(O)Cn1c2ccccc2c2ccccc21)S(C)(=O)=O (configuration not stated)	i
COc1ccc(S(=O)(=O)N2CCC(C(=O)Nc3ccccc3C)CC2)c2cccnc12	0.7
CCn1cc(C(=O)OCc2cccc(Br)c2)c(=O)c2ccc(C)nc21	i
O=S(=O)(NC1CC1)c1cccc(S(=O)(=O)N2CCCC2)c1	i
CCOC(=O)N1CCN(S(=O)(=O)c2cc(Br)cc3c2N(C(=O)C2CC2)CC3)CC1	0.9
Cn1c(CCNC(=O)c2ccccc2)nc2cc(NC(=O)C3CCCCC3)ccc21	0.7
CC(=O)Nc1cccc(NC(=O)CSc2nnc(Cc3cccn3C)n2CCc2ccccc2)c1	i
COc1ccc(-n2c(C)c(C(C)=O)c(C(C)=O)c2C)cc1OC	i
COc1cccc(CNCC(=O)N2C(C)CCCC2C)c1 (configuration not stated)	i
CN(C)S(=O)(=O)N(CC(=O)Nc1ccccc1C(F)(F)F)c1ccccc1	0.8
O=C(CCl)Nc1ccccc1Sc1ccc(Cl)cc1	i
O=C(N/N=C/C=C/c1ccccc1)c1n[nH]c2c1CCC2	i
O=c1[nH]c2ccccc2nc1C(Cl)c1ccccc1 (configuration not stated)	i
CC(C)(C)C1CCC(OC(=O)c2ccncc2)CC1 (configuration not stated)	i
CC(=NCc1ccco1)c1c(O)n(C2CCCCC2)c(=O)[nH]c1=O	2.9
Cn1nc(C(=O)NCC2CCCO2)c2ccccc2c1=O (configuration not stated)	0.3
COc1cc(CC(=O)Nc2sccc2C(N)=O)cc(OC)c1OC	i
O=C(CCC(=O)N(CC(=O)NC1CCCCC1)c1ccc2c(c1)OCO2)Nc1ccccn1	i
Cc1c(C(c2cccc([N+](=O)[O-])c2O)c2c(C)n(C)n(-c3ccccc3)c2=O)c(=O)n(-c2ccccc2)n1C	i
CCOC(=O)c1c(NC(=O)Cc2cccs2)sc2c1CCCC2	0.7
COc1ccc(N(CC(=O)NCc2ccco2)S(C)(=O)=O)cc1	i
O=[N+]([O-])c1ccc(/C=N\N2CCN(c3ccc(Cl)cc3)CC2)cc1	0.1
Cc1cc(N2CCOCC2)nc(NCc2ccccc2)n1	i
CC(=O)N1CCN(c2ccc(NC(=O)c3ccc(C)cc3)cc2)CC1	1.3
COc1cccc(Nc2nc(N)nc(C(F)(F)F)n2)c1	0.2
Cc1cccc(N2C(=O)CC(N3CCOCC3)C2=O)c1 (configuration not stated)	1.3
CC(C)c1ccc2oc(=O)cc(CN3CCN(c4ccccc4)CC3)c2c1	1.4

Structures above that have a CF3 group (two):
SMILES	H5N1 antiviral
CN(C)S(=O)(=O)N(CC(=O)Nc1ccccc1C(F)(F)F)c1ccccc1	0.8
COc1cccc(Nc2nc(N)nc(C(F)(F)F)n2)c1	0.2

Next entries
SMILES	H5N1 antiviral
N=c1n(CCO)c2ccccc2n1CCOc1ccccc1	0.5
CCS(=O)(=O)c1ccc(NC(=O)c2ccccc2Cl)c(O)c1	3.2
Cc1ccc(C)c(OCCn2cc(/C=C(\C#N)C(=O)NCc3cccs3)c3ccccc32)c1	0.8
CC(C)C(=O)Nc1cc(C(F)(F)F)ccc1N1CCOCC1	0.8
Cc1ccccc1NC(=O)C1CCCN1C(=O)NC1CCCCC1 (configuration not stated)	i
O=C(CCNS(=O)(=O)c1ccccc1C(F)(F)F)NCc1ccc2c(c1)OCO2	0.6
COc1ccc(-c2nc(C3CCCCC3)no2)cc1OC	i
O=C(c1cc2n(n1)C(C(F)(F)F)CC(c1ccco1)N2)N1CCN(c2ccccn2)CC1 (configuration not stated)	i
O=C(Nc1ccc(C(=O)N2CCCC2)cc1)c1ccccc1F	i
CSc1nnc(-c2sccc2OCc2ccc(C)cc2)n1C	0.2
COc1ccc(N(CC(=O)NCCSc2ccccn2)S(C)(=O)=O)cc1Cl	1.5
CC(=O)c1cccc(NC(=O)c2ccco2)c1	0.1
COc1ccc(OCc2cccc(C(=O)N3CCCC3)c2)cc1	0.8
O=C(Nc1cccc2ccccc12)c1onc2c1CCCC2	i
CCOC(=O)[C@]1(C#N)[C@@H]2C=CC(C(C)=O)=CN2[C@@H](C(N)=O)[C@@H]1c1ccsc1	1.0
CCOC(=O)CSC1=C(C#N)C(c2ccc(OC)cc2)C2=C(CC(C)(C)CC2=O)N1 (configuration not stated)	0.2
C=CCc1ccc(OCCOCCOc2ccc(C)cc2[N+](=O)[O-])c(OC)c1	1.3
COc1ccccc1N1CCN(C(=O)CSc2nc3ccccc3[nH]2)CC1	1.0
COc1ccc(OC)c(NC(=O)C2CCN(S(=O)(=O)c3cccs3)CC2)c1	i
Cc1ccccc1-n1nnnc1SCC(N)=O	0.1
CCOC(=O)C1=C(C)N=C2SC(C)C(=O)N2C1c1ccc(OC(C)=O)c(OCC)c1 (configuration not stated)	1.4
CCN(c1ccccc1)S(=O)(=O)c1ccc(OCC(=O)Nc2cc(C)on2)cc1	0.5
Cc1ccc2c(c1)CC1(CN2C)C(=O)NC(=O)N(C(C)C)C1=O (configuration not stated)	i
CCOc1ccc(Cl)cc1/C=N/O	i
Cc1nc(N2CCN(S(=O)(=O)c3cccc4nonc34)CC2)c2c3c(sc2n1)CCCC3	0.7
COc1ccc(OCCCC(=O)N2CCCc3ccccc32)cc1	0.1
COc1cc(OC)nc(NC2OC(=O)c3ccccc32)n1 (configuration not stated)	i
O=C1C(c2ccc(F)cc2)N(Cc2ccc3c(c2)OCO3)C(=O)CN1C1CCCC1 (configuration not stated)	i
O=C(NC1=NCCS1)c1ccc(OCC2CCCO2)cc1 (configuration not stated)	i
O=C(c1cccc(C(F)(F)F)c1)N1CCCC1	i
Cn1c2c(c(=O)n(C)c1=O)C(CC(=O)Nc1ccccc1)C(=O)N2 (configuration not stated)	1.1
COC(=O)C1=C(N)OC2=C(C(=O)CCC2)C1c1cccs1 (configuration not stated)	i
O=C(Cn1ccsc1=NC(=O)C(F)(F)F)c1ccccc1	0.2
Cc1ccc(OCc2nc(C#N)c(NCc3ccco3)o2)cc1	0.2
Cc1onc(-c2ccccc2Cl)c1C(=O)N(C)C1CCCCC1	2.6
CN1CCc2c(sc3c2C(=O)NC(c2cn(Cc4ccccc4)c4ccccc24)N3)C1 (configuration not stated)	i
COc1ccc(N2CCN(c3ccc(NC(=O)c4ccc5c(c4)OCO5)cc3C#N)CC2)cc1	0.5
CCSc1nnc(NC(=O)Cc2ccccc2OC)s1	i
COc1cc(/C=C/C(C)=O)cc(OC)c1OC	0.8
CCCc1nc2scc(-c3ccccc3)c2c(=O)n1N	i

Compound activity: PubChem, SRMLSC
